Screening results deposited in PubChem by National Center for Advancing Translational Sciences (NCATS).
A647 autofl: compound autofluorescence in A647 spectral region. Compound fluorescence, A647 channel (570/671 nm), Tris buffer. max dye-equivalent concentration, M. 59,000 tested, under 10 active. AID 592; active means above 1 µM dye equivalent; inconclusive means 0.1 to 1 µM; inactive means 0.1 µM or less;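 also: values scaled relative to a standard on each plate; highest value over a series up to 38 µM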
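Spectral profiling of library compounds in pH 8.0 Tris: 15 min room-temperature incubation, single ex/em pair (570/671 nm), response normalized to Alexa 647 equivalents.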
A488 autofl: A488 region autofluorescence; compound autofluorescence, A488 spectral region, dye equivalency; active compounds read high; max dye equivalency, M; 0.1% of 59,000 active; active = above 10 nM dye equivalent; inconclusive = 1 to 10 nM; inactive = 1 nM or less; about half of its hits are not listed in these tables;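 also: highest value over a series up to 38 µM; compound alone in buffer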
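Intrinsic compound fluorescence is measured in 100 mM Tris buffer at pH 8.0 following 15 min incubation at room temperature. Intensities at 480 nm excitation/540 nm emission are calibrated to an on-plate A488 concentration series, giving dye-equivalent concentrations.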
Resorufin fluor: compound fluoresces in the resorufin spectral region. Compound fluorescence, resorufin region 547/598 nm, buffer; active compounds read high. 0.04% of 59,000 active. max dye-equivalent concentration, M. AID 588; active = above 10 nM dye equivalent; inconclusive = 1 to 10 nM; inactive = 1 nM or less; a few of its hits are not listed in these tables; also: highest value over a series up to 38 µM
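Tris 100 mM pH 8.0; compound added, 15 min RT; CCD imager read, ex 547 nm/em 598 nm; signal normalized to resorufin standard curve (six concentrations per plate) as dye-equivalent concentration.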
AID923: qHTS Assay for Allosteric/Competitive Inhibitors of Caspase-1: Spectroscopic Profiling in AFC Spectral Region; compound fluorescence, AFC spectral region (405/520 nm); almost no hit is shown here; Potency, µM (highest dose often 57.5 µM), for inactives: top-dose fluorescence increase, usual class: activators; 1.1% of 75,000 active; active = well fitted activation curve with a large enough effect; inconclusive = small, poorly fitted or top-dose-only effect;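 also: potency is read from the fitted curve at half-maximal effect; 0% is about no effect; scaled to a free AFC standard on each plate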
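Compound autofluorescence profiled at 405 nm ex/520 nm em during kinetic caspase 1 run (50 nM enzyme, 5 uM Ac-WEHD-AFC, HEPES pH 7.5, 10 mM DTT). Titration up to 57 uM; baseline from regression intercept, normalized to AFC standard curve.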
TSHR ag: TSH receptor (human) agonism. P16473. Potency, µM (top dose mostly 57.1 µM), for the others: at the highest dose activation, hits mostly activators. 0.48% of 73,000 active. HEK293-CNG-TSHR cells (CNG channel as cAMP sensor), membrane potential dye, cAMP; active = well fitted activation curve of enough size with the parental cells flat; inconclusive = any curve in the parental cells; inactive = parental cells flat and receptor cells flat or falling; also: potency is read from the fitted curve at half-maximal effect; % of control where 0% means no effect; weak receptor curves with flat parental cells got no call and are not listed
Target sequence (P16473 whole entry, looked up): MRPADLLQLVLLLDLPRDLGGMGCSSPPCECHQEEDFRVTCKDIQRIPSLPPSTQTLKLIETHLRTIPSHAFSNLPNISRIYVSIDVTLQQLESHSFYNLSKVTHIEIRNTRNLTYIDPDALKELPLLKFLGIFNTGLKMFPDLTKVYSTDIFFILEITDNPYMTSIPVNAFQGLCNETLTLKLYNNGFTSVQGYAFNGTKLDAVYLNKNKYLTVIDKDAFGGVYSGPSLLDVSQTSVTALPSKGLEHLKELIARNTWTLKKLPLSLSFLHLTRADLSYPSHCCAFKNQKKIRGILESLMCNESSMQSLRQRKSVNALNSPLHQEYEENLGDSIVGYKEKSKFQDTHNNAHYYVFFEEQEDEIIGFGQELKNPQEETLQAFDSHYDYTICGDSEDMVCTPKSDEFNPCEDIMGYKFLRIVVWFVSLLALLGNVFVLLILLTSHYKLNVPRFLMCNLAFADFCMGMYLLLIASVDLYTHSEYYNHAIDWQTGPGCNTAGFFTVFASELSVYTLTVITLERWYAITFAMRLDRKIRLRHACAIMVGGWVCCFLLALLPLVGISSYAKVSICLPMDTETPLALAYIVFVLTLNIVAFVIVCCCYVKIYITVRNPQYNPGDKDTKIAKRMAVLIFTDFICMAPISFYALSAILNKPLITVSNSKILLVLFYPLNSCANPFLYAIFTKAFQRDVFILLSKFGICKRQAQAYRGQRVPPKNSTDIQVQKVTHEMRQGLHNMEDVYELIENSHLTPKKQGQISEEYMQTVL
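cAMP rise detected as CNG-channel membrane depolarization by fluorescent dye (emission 590 nm), 30 min after compound, following 60 min dye loading containing 100 uM RO 20-1724 at room temperature. Cells: TSHR/CNG HEK 293, with parental CNG HEK 293 as control.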
Starred values were filed as active, the others as inactive; [ ] = remark or other dose.

O=C(O)c1cc(-c2ccc(Cl)cc2)n[nH]1 was read as AID923 7.8% and TSHR ag 6%.
Screening CCN(CC)c1ccc(NC(=O)c2cncc(Br)c2)cc1 returned A647 autofl 1e-09, A488 autofl inactive, Resorufin fluor inactive, AID923 2.2% and TSHR ag inconclusive.
Screening CN1CCN(C(c2cccnc2)c2ccc3cccnc3c2O)CC1 (stereo not drawn) returned A647 autofl 1e-09, A488 autofl inactive, Resorufin fluor inactive, AID923 -0.7% and TSHR ag 7%.
For O=C(O)CCn1nnc(-c2cccs2)n1 the results were A647 autofl 6.5e-08, A488 autofl inactive, Resorufin fluor inactive, AID923 2.8% and TSHR ag 0%.
CC(NS(C)(=O)=O)C(c1cccs1)N1CCN(C)CC1 (stereo not drawn) was read as A647 autofl 3.2e-09, A488 autofl inactive, Resorufin fluor inactive, AID923 -2.6% and TSHR ag 1%.
Screening CC(C)(C)N(Cc1cc2ccccc2[nH]c1=O)C(=O)C1CCCCC1 returned A647 autofl 5.7e-09, A488 autofl inactive, Resorufin fluor inactive, AID923 -0.4% and TSHR ag 2%[11.4 µM].
For CCC(NC(=O)NCc1ccc2c(c1)OCO2)(C(F)(F)F)C(F)(F)F the results were A647 autofl 9.6e-09, A488 autofl inactive, Resorufin fluor inactive and AID923 -3.3%.
For Cc1ccc(C2=Nc3ccccc3S[C@@H](c3cccc([N+](=O)[O-])c3)C2)cc1 the results were A647 autofl 4.5e-08, A488 autofl inactive, Resorufin fluor inactive, AID923 -0.3%[11.5 µM] and TSHR ag -1%[11.4 µM].
`O=C(Nc1ccc(CN2CCOCC2)cc1)c1ccc(-c2ccc(Br)cc2)o1` gave A647 autofl 1e-09, A488 autofl inactive, Resorufin fluor inactive, AID923 -2.3% and TSHR ag inconclusive.
`CCC(=O)Nc1ccc(Cl)c(NC(=O)c2cccnc2)c1` gave A647 autofl 2.5e-08, A488 autofl inactive, Resorufin fluor inactive, AID923 -1.3% and TSHR ag inconclusive.
`COc1ccc(Cc2n[nH]c(=O)c3ccccc23)cc1OC` gave A647 autofl 1.1e-08, A488 autofl inactive, Resorufin fluor inactive and AID923 1.8%.
For CCCc1cc(=O)[nH]c(SCc2ccccc2)n1 the results were A647 autofl 8.2e-08, A488 autofl inactive, Resorufin fluor inactive, AID923 -1.1% and TSHR ag 19%.
Screening CCOC(=O)c1c(C)oc2c1cc(O)c1ccccc12 returned A647 autofl 2e-09, A488 autofl inactive, Resorufin fluor inactive, AID923 0.2% and TSHR ag -7%.
`O=C(OCCCc1ccncc1)c1ccc(S(=O)(=O)N2CCOCC2)cc1` gave A647 autofl 3.1e-09, A488 autofl inactive, Resorufin fluor inactive, AID923 -0.1% and TSHR ag -2%[11.4 µM].
Screening COc1ccc(OCc2nn3c(-c4ccccn4)nnc3s2)cc1 returned A647 autofl 1.4e-08, A488 autofl inactive, Resorufin fluor inactive, AID923 -2.3% and TSHR ag 14%.
Screening CCOC(=O)C1=C(N)OC2=C(C(=O)CCC2)C1c1cccs1 (stereo not drawn) returned AID923 -2.4% and TSHR ag inconclusive.
For CCCOC(=O)CSc1nc(N)c(C#N)c(CC)c1C#N the results were A647 autofl 3.7e-08, A488 autofl inactive, Resorufin fluor inactive, AID923 0.9% and TSHR ag 3%.
CCn1c(SCC(=O)Nc2nnc(C)s2)nnc1-c1ccco1 was read as A647 autofl 4.4e-08, A488 autofl inactive, Resorufin fluor inactive, AID923 -0.6% and TSHR ag 0%.
`Nc1nc2ccc(Oc3ccccc3)cc2s1` gave A647 autofl 7.6e-09, A488 autofl inactive, Resorufin fluor inactive, AID923 -0.5% and TSHR ag 3%.
For NCc1ccccc1CC(=O)N[C@@H]1C(=O)N2C(C(=O)O)=C(CSc3nnnn3CC(=O)O)CS[C@@H]12 the results were A647 autofl 5.3e-08, A488 autofl inactive, Resorufin fluor inactive, AID923 1.4%[25.7 µM] and TSHR ag -7%[25.6 µM].
For Cc1oc2c(c1C(=O)NCc1cc(C(=O)O)co1)CCCC2 the results were A647 autofl 1e-09, A488 autofl inactive, Resorufin fluor inactive, AID923 -0.6% and TSHR ag 4%.
Screening C=CCOC(=O)C1C(=O)CC(C)(O)C(C(=O)OCC=C)C1c1ccc(OCC)cc1 (stereo not drawn) returned A647 autofl 1e-09, A488 autofl inactive, Resorufin fluor inactive, AID923 1.7% and TSHR ag inconclusive.
c1ccc(-c2nc(C3CCCCC3)no2)cc1 was read as A647 autofl 1.4e-08, A488 autofl inactive, Resorufin fluor inactive, AID923 1.7% and TSHR ag -7%.
Screening Cc1cnc(C(=O)OCC(=O)NC2CCCCC2)cn1 returned A647 autofl 3e-08, A488 autofl inactive, Resorufin fluor inactive, AID923 4.3% and TSHR ag -3%.
`COCCCNC(=O)C1CC(=O)N(Cc2ccc(OC)cc2)C1` (stereo not drawn) gave A647 autofl 1e-09, A488 autofl inactive, Resorufin fluor inactive, AID923 -0.5% and TSHR ag -6%.
Screening Cn1c(=O)c(-c2ccc(F)cc2)nc2cnc(Oc3ccccc3)nc21 returned A647 autofl 5.4e-09, A488 autofl inactive, Resorufin fluor inactive, AID923 3.2% and TSHR ag inconclusive.
`Cn1c(C(=O)N2CCCc3ccccc32)cc2sccc21` gave A647 autofl 1.6e-08, A488 autofl inactive, Resorufin fluor inactive, AID923 2.0% and TSHR ag inconclusive.
Screening CC(=O)NC(C)C(=O)OCC(=O)c1ccc(Cl)s1 (stereo not drawn) returned A647 autofl 3.7e-08, A488 autofl inactive, Resorufin fluor inactive, AID923 0.9% and TSHR ag -2%.
Screening CCOC(=O)N1CCC(NS(=O)(=O)c2ccc3c(c2)CCN3C(C)=O)CC1 returned A647 autofl 1.4e-08, A488 autofl inactive, Resorufin fluor inactive, AID923 -0.8% and TSHR ag 8%.
`CCN(C(=O)C1CCCCC1)c1nnc(-c2cccnc2)s1` gave A647 autofl 1e-09, A488 autofl inactive, Resorufin fluor inactive, AID923 0.3% and TSHR ag 4%.
For O=c1c2ccccc2nc(SCc2nnc(-c3ccccc3Br)o2)n1-c1ccccc1 the results were A647 autofl 1.4e-08, A488 autofl inactive, Resorufin fluor inactive, AID923 -1.5% and TSHR ag inconclusive.
Screening O=C(CN(C1CCCCC1)S(=O)(=O)c1ccccc1)NCc1cccnc1 returned A647 autofl 2.5e-09, A488 autofl inactive, Resorufin fluor inactive, AID923 0.3% and TSHR ag 18%.
CCOC(=O)C1CCCN(Cc2ccccc2C)C1 (stereo not drawn) was read as A647 autofl 8.7e-09, A488 autofl inactive, Resorufin fluor inactive, AID923 2.2% and TSHR ag 2%.
Screening CO[C@H]1COC(=O)[C@H]2CCCN2C(=O)C/C=C\[C@@H](C)[C@H](OC)COC(=O)[C@@H](OCc2ccccc2)/C=C\[C@@H]1C returned AID923 -2.2%[11.5 µM] and TSHR ag -4%[11.4 µM].
Screening O=S(=O)(c1ccc(-c2ccccc2)cc1)N1CCOCC1 returned A647 autofl 1e-09, A488 autofl inactive, Resorufin fluor inactive, AID923 -0.4% and TSHR ag 13%.
Screening CC1(C)C2CC=C(/C=N/n3cnnc3)C1C2 (stereo not drawn) returned A647 autofl 1e-09, A488 autofl inactive, Resorufin fluor inactive, AID923 0.9% and TSHR ag -3%.
Cc1ccc(S(=O)(=O)N2CCN(C(=O)CSc3nc4ccccc4c(=O)[nH]3)CC2)cc1 was read as A647 autofl 3.9e-08, A488 autofl inactive, Resorufin fluor inactive, AID923 2.2% and TSHR ag 7%.
`CCOC(=O)c1sc(-c2ccc(OC)cc2)cc1N` gave A647 autofl 8.7e-09, A488 autofl inactive, Resorufin fluor inactive, AID923 -0.7% and TSHR ag -17%.
`CC(=O)N1CCc2cc(S(=O)(=O)NCCC(=O)NC3CCN(Cc4ccccc4)CC3)ccc21` gave A647 autofl 5e-09, A488 autofl inactive, Resorufin fluor inactive, AID923 -2.5% and TSHR ag 3%.
`CN(C)CCN1C(=O)C(=O)/C(=C(/O)c2ccccc2)C1c1ccccc1F` (stereo not drawn) gave AID923 -4.0% and TSHR ag 6%.
CCC/C=C(\CCC)C(NC(=O)Oc1ccc(F)cc1)c1ccc(C(=O)OC)cc1 (stereo not drawn) was read as AID923 0.3% and TSHR ag inconclusive.
For CCCCn1c(SCn2nnc3ccccc3c2=O)nc2cc(C(=O)OC)ccc2c1=O the results were A647 autofl 1e-09, A488 autofl inactive, Resorufin fluor inactive, AID923 -1.2% and TSHR ag 9%[11.4 µM].
`COc1ccc(C2C(C(=O)NCCN3CCOCC3)c3ccccc3C(=O)N2C)cc1OC` (stereo not drawn) gave A647 autofl 5.2e-09, A488 autofl inactive, Resorufin fluor inactive, AID923 0.0% and TSHR ag 2%.
`CCNc1nc(NC#N)nc(SCC(=O)OCC)n1` gave A647 autofl 2.2e-08, A488 autofl inactive, Resorufin fluor inactive, AID923 -0.1% and TSHR ag -4%[11.4 µM].
Screening CC(Sc1ccccn1)C(=O)Nc1ccccc1 (stereo not drawn) returned A647 autofl 2.2e-09, A488 autofl inactive, Resorufin fluor inactive, AID923 1.2% and TSHR ag -4%.

Of the compounds above, these contain fluorine:
For CCC(NC(=O)NCc1ccc2c(c1)OCO2)(C(F)(F)F)C(F)(F)F the results were A647 autofl 9.6e-09, A488 autofl inactive, Resorufin fluor inactive and AID923 -3.3%.
Screening Cn1c(=O)c(-c2ccc(F)cc2)nc2cnc(Oc3ccccc3)nc21 returned A647 autofl 5.4e-09, A488 autofl inactive, Resorufin fluor inactive, AID923 3.2% and TSHR ag inconclusive.
`CN(C)CCN1C(=O)C(=O)/C(=C(/O)c2ccccc2)C1c1ccccc1F` (stereo not drawn) gave AID923 -4.0% and TSHR ag 6%.
CCC/C=C(\CCC)C(NC(=O)Oc1ccc(F)cc1)c1ccc(C(=O)OC)cc1 (stereo not drawn) was read as AID923 0.3% and TSHR ag inconclusive.

New compounds follow.
`CCn1c(SCc2nnc(-c3ccccc3)o2)nnc1-c1ccc(S(=O)(=O)N2CCCC2)cc1` gave A647 autofl 5.4e-09, A488 autofl inactive, Resorufin fluor inactive, AID923 -1.7% and TSHR ag 0%.
Screening CC(=O)NCCn1ccc2ccccc21 returned A647 autofl 3.8e-08, A488 autofl inactive, Resorufin fluor inactive, AID923 1.3% and TSHR ag 0%.
For CC1=C(C(=O)N2CCCCC2)C2(CCC(C)CC2)OC1=O (stereo not drawn) the results were AID923 2.9% and TSHR ag 0%.
Screening CCOc1ccc2nc(NC(=O)COC)sc2c1 returned A647 autofl 1e-09, A488 autofl inactive, Resorufin fluor inactive, AID923 -0.8% and TSHR ag 4%.
Screening CCOC(=O)C(C)Oc1ccc(C2NC(=O)NC(C)=C2C(C)=O)cc1Br (stereo not drawn) returned A647 autofl 3e-08, A488 autofl inactive, Resorufin fluor inactive, AID923 1.4% and TSHR ag 9%.
`Cc1nc(N2C(=O)C(=O)/C(=C(/O)c3ccccc3)C2c2ccco2)sc1C` (stereo not drawn) gave A647 autofl 1e-09, A488 autofl inactive, Resorufin fluor inactive, AID923 5.8% and TSHR ag 15%.
`CS(=O)(=O)c1ccc(-c2cc(Br)sc2-c2ccc(F)cc2)cc1` gave AID923 1.5% and TSHR ag inconclusive.
Screening CCOC(=O)N1CCN(C(=O)CCn2nc(-c3ccccc3)ccc2=O)CC1 returned A647 autofl 3.2e-08, A488 autofl inactive, Resorufin fluor inactive, AID923 -1.5% and TSHR ag -1%.

Among those listed so far, these have a cyano group.
For CCCOC(=O)CSc1nc(N)c(C#N)c(CC)c1C#N the results were A647 autofl 3.7e-08, A488 autofl inactive, Resorufin fluor inactive, AID923 0.9% and TSHR ag 3%.
`CCNc1nc(NC#N)nc(SCC(=O)OCC)n1` gave A647 autofl 2.2e-08, A488 autofl inactive, Resorufin fluor inactive, AID923 -0.1% and TSHR ag -4%[11.4 µM].

Not all compounds are listed, so the mix of outcomes need not match the whole.
